# Screens from PubChem BioAssay.
# gsp ag = qHTS for Agonist of gsp, the Etiologic Mutation Responsible for Fibrous Dysplasia/McCune-Albright Syndrome: qHTS. AID 624287, 2012. gsp mutant cells, cAMP HTRF, 30 min; control for the full effect not named in the record. Potency, µM (top dose mostly 76.9 µM), for the others: at the top dose activation (cAMP increase), hits mostly activators. 340,000 tested, 0.13% active; active = well fitted activation curve with a large enough effect; inconclusive = small, poorly fitted or top-dose-only effect, or another doubt; inactive = no such curve, though single readings can be large or run the other way; cell line not stated here;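 also: phosphodiesterase inhibitor Ro 20-1724 added with compounds to block cAMP breakdown; potency is read from the fitted curve at half-maximal effect; nearly all actives have a fitted effect of over 60% in size; about a fifth of the inactives were tested at one dose only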
#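 Cells stably selected in G418 were plated at 2000/well, grown 16-24 hr, then given compounds in DMSO with the PDE inhibitor […] (300 uM solution added) for 30 min at 37C; cAMP was read by HTRF.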
# D2 potentiator = Beta-Arrestin HTS for Positive Allosteric Modulators of the Human D2 Dopamine Receptor: Potentiators; D(2) dopamine receptor (Homo sapiens), P14416; DiscoveRx D2 beta-arrestin cells, luminescence, 90 min; 100% = 57 uM dopamine signal; potentiation, % (test concentration not listed); 360,000 tested, 0.23% active; active = potentiation of 50% or more; inconclusive = 30% to 50%; inactive = 30% or less;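 also: compound concentration not given in the record; tested on top of an EC20 dose of dopamine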
# Target sequence (P14416 whole entry, looked up): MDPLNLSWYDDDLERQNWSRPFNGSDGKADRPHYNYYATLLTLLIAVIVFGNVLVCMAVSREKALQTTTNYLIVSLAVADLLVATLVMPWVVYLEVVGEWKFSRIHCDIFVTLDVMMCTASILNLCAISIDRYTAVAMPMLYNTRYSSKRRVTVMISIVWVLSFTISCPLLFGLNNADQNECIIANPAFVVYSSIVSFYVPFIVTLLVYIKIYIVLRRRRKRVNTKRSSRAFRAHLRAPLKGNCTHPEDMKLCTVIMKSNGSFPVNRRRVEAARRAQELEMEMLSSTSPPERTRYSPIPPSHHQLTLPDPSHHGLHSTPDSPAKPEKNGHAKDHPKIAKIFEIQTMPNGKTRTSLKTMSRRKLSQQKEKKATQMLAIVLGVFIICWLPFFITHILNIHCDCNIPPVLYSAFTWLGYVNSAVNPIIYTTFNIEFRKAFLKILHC
#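 PathHunter beta-arrestin assay in DiscoveRx D2 cells. Compounds were added with an EC20 of dopamine (50 nM final) for 90 min at 37 deg C. Luminescence was read 1 h after detection reagent, with 57 uM dopamine as the EC100 control.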
# TRPV1 PAM = HTS Assay for Compounds that Act as Potentiators of the Vanilloid Receptor 1. TRPV1-expressing cells, Fluo-8 calcium influx, capsaicin EC20 potentiation; host cell line not named in the record; control for the full effect not named in the record. Transient receptor potential cation channel subfamily V member 1 (Homo sapiens), Q8NER1. 320,000 tested, 0.02% active. potentiation, % at 8.33 µM; active means potentiation above 80%; inconclusive means 30% to 80%; inactive means below 30%; also: 0% is about no effect
#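 TRPV1-expressing cells were cultured overnight at 35.5C and loaded with Fluo-8 calcium dye for 40 to 90 min at room temperature. After a 10 s baseline, compound was added and calcium influx was read kinetically for 3 min (ex 480/em 520 nm).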
# ClpP mod = qHTS Assay for Activators of ClpP. purified B. subtilis ClpP, FRET peptide cleavage, 20 min. 340,000 tested, 1.9% active. Potency, µM (titrated, usually from 57.5 µM), for the others: at the top dose activity change, negative = active; active = well fitted falling curve with a large enough effect; inconclusive = small, poorly fitted or top-dose-only effect; inactive = no such curve, though single readings can be large or run the other way; also: potency is read from the fitted curve at half-maximal effect; the source files actives as falling curves though it sought activators and does not explain the sign; nearly all actives have a fitted effect of over 65% in size; many hits overshoot -100%
# Target sequence (P80244 whole entry, looked up): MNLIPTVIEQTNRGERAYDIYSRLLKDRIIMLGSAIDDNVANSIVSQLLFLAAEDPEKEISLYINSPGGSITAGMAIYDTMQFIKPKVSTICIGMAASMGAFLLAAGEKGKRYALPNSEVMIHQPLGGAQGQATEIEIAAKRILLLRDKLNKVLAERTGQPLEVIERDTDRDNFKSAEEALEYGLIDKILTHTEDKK
#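 ClpP 10 microg/mL final, pH 8 Tris/KCl buffer with BSA, glycerol, Tween-20; compound pinned in; FRET-FV substrate; RT 20 min; Ex320/Em430; ΔFRET vs ADEP 5.8 microM, DMSO, no enzyme.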
# gsp antag = qHTS for Antagonists of gsp, the Etiologic Mutation Responsible for Fibrous Dysplasia/McCune-Albright Syndrome: qHTS | gsp-mutant cells, cAMP HTRF, 30 min; control for the full effect not named in the record | Potency, µM (series often up to 76.9 µM), inactives show top-dose activity change, negative = inhibition, actives largely listed as inhibitors | 340,000 tested, 0.4% active | AID 624288, 2012; active = falling curve of any shape with a large fitted effect; inconclusive = falling curve, mostly with a smaller effect; inactive = flat or rising curve; cell line not stated here;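 also: intracellular cAMP measured with PDE inhibitor Ro 20-1724 present during compound exposure; potency is read from the fitted curve at half-maximal effect; % is scaled to controls: 0 for no effect and ±100 for the full control effect; nearly all actives have a fitted effect of over 65% in size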
#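 Cells, 2000/well, grown 16–24 h in DMEM 10% FBS with 0.5 mg/ml G418, then compounds plus […] (300 uM addition stock), 30 min at 37C. cAMP read by HTRF (cAMP-d2 and anti-cAMP antibody-K in lysis buffer) after 30 min RT.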
# Menin-MLL FL inh = qHTS Assay for Inhibitors Targeting the Menin-MLL Interaction in MLL Related Leukemias: Competition With Fluorescein Labeled MLL-derived Peptide; Fluorescence polarization, fluorescein-MLL peptide displacement from menin; FP activity change, % at 61.4 µM; 290,000 tested, under 10 active; inconclusive = falling polarisation curve, or a change in total fluorescence; inactive = total fluorescence flat and polarisation flat or rising; no compound was filed as active; the % refers to the polarisation; negative = inhibition;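 also: % of control where 0% means no effect; inhibitors lower the polarisation; unlabelled MLL peptide was the positive control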
# Sfp PPTase inh = qHTS Assay for Inhibitors of Bacillus subtilis Sfp phosphopantetheinyl transferase (PPTase); 4'-phosphopantetheinyl transferase ffp (Bacillus subtilis), Q9F4F7; Biochemical Sfp PPTase activity, qHTS; Potency, µM, for the others: max response, negative = inhibition, most hits filed as inhibitors; 310,000 tested, 3.5% active; AID 1490, 2009; active = well fitted inhibition curve with a large enough effect; inconclusive = small, poorly fitted or top-dose-only effect, or another doubt; inactive = no such curve, though single readings can be large or run the other way;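 also: the enzyme is Sfp with the accession as filed and its product quenches rhodamine fluorescence; potency is read from the fitted curve at half-maximal effect; 0% = enzyme reaction without inhibitor and -100% = no enzyme wells; top concentration of the series not given in the record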
#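 Fluorescence-quenching assay with 15 nM Sfp, 5 uM rhodamine-CoA and 12.5 uM BHQ-2-labelled ybbR peptide in pH 7.6 Hepes/MgCl2 buffer. Enzyme was pre-incubated with compound for 15 min at room temperature. Rate was taken from the 30-min fluorescence change (525/598 nm).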
# Active calls of the source: *; ? = inconclusive; . = not tested or not shown; [ ] = remark or other dose.
SMILES,gsp ag,D2 potentiator,TRPV1 PAM,ClpP mod,gsp antag,Menin-MLL FL inh,Sfp PPTase inh
Cc1cc(C)cc(N2C(=O)CN(Cc3sccc3C)C2=S)c1,0%,-8,-26,-1.0%,-12%,6.7,-10%
COC(=O)C1=C(CSc2nccn2C)NC(=O)NC1c1cc(C)ccc1C (stereo unspecified),0%,-5,18,-0.4%,-8%,4.5,-16%
CCCC1C2C(=O)N(c3cccc(C)c3)C(=O)C2ON1c1ccccc1 (stereo unspecified),-10%,-10,-5,2.2%,-6%,2.7,0%
CCC(C)/C(C)=N/NC(=O)CNS(=O)(=O)c1ccc([N+](=O)[O-])cc1 (stereo unspecified),-6%,12,11,.,4%,6.0,10%
COc1ccc(C(=O)OC/C(O)=C(\C#N)c2nc3ccccc3[nH]2)cc1S(=O)(=O)N1CCOCC1,19%,-28,29,0.4%,-6%,10,13%
CCOC(=O)c1cc(-c2ccccc2)sc1NC(=O)C(C)Sc1nnc(N)s1 (stereo unspecified),-13%,4,12,-2.4%,?,-3.3,-4%
CC(C)NS(=O)(=O)c1ccc(NC(=O)C(C)OC(=O)CCC2CCCCC2)cc1 (stereo unspecified),-72%[inhibitor],-16,-8,0.9%,-5%,.,.
COc1ccc(/C=C(/NC(=O)c2ccccc2Cl)C(=O)NCCCC(=O)O)cc1,9%[15.4 µM],-2,20,.,5%,-5.1,16%
O=C(CCc1ccc(S(=O)(=O)NCCc2ccccc2)cc1)Nc1ccc2c(c1)OCO2,4%,2,-1,-0.1%,-2%,3.4,9%
COc1ccc(CNC(=O)C(C)Sc2nc3ccccc3c(=O)n2CCCN2CCOCC2)cc1 (stereo unspecified),-1%[15.4 µM],-3,3,?,1%,-0.8,-2%
N#Cc1nc(-c2ccccc2)oc1N1CCN(C(=O)c2ccco2)CC1,-9%[15.4 µM],-24,-4,?,-15%,.,-4%
CCN(CC)S(=O)(=O)c1cccc(N=Nc2c(O)c3ccccc3oc2=O)c1,?,-9,-12,-1.4%,3%,3.3,1%
CCNC(=O)CC1C(=O)N(c2cccc(OC)c2)C(=O)N1CCOC (stereo unspecified),6%,-9,1,3.3%,3%,2.3,18%
S=C(NCC1CCCO1)Nc1ccc(Cl)cc1Cl (stereo unspecified),9%[15.4 µM],-9,-14,-18%,7%,6.0,?
COc1ccc(OC)c(S(=O)(=O)N2CCC(C(=O)Nc3cccc(C)c3C)CC2)c1,?,0,1,1.5%,-1%,0.9,23%
O=c1c2c(ncn2C2CCCC2)n(Cc2ccccc2)c(=O)n1CCOc1ccc(Br)cc1,1%,0,0,-0.8%,-6%,9.6,5%
Cc1csc(SCC(=O)Nc2ccc(Cl)cn2)n1,2%[15.4 µM],-52,-2,?,-6%,-0.4,4%
O=C(Cc1ccccc1[N+](=O)[O-])OCN1C(=O)c2ccccc2C1=O,-23%,-3,5,-0.6%,-7%,.,10%
Cc1cc(C)cc(SCc2noc(C(=O)NC(C)C)c2C(=O)NC(C)C)c1,.,13,24,-0.8%,-9%,1.6,14%
CCOc1ccc(/C=C/C2=CC(C)(C)NC(=S)N2)cc1,-2%[15.4 µM],-10,0,.,8%,3.8,-6%
CC1(C)CC(=O)C=C(c2ccc(COC(=O)c3cc(F)cc(F)c3)cc2)C1=O,-119%[inhibitor],-1,.,1.4%,.,.,.
COc1ccc(NC(=O)Cn2nnc(-c3ccccc3NC(=O)c3cccs3)n2)cc1,-2%,-2,2,-3.9%,-6%,-1.5,-24%
CNCc1ccccc1OCC(=O)Nc1ccccc1,9%,-8,11,-2.8%,1%,4.7,-2%
CC1(C)OC(=O)C(=CNCC(=O)NCC(=O)O)C(=O)O1,-15%,-12,-18,-4.7%,9%,1.3,-5%
Cc1ccc2nsnc2c1NC(=O)c1cccnc1Cl,4%[15.4 µM],-1,3,.,7%,-0.3,3%
O=C(c1ccc([N+](=O)[O-])s1)N1CCN(c2ncccn2)CC1,-8%,1,.,-1.0%,.,.,.
CCOc1ccc(NC(=O)N2CCN(C(=O)c3ccco3)CC2)cc1,18%[15.4 µM],-14,24,-1.3%,4%,.,12%
COc1ccc(C(=O)Nc2ccc3c(c2)OCCO3)cc1[N+](=O)[O-],16%,-13,-15,.,0%,-0.4,18%
CCN(CC)C(=O)c1cnn(-c2ccccc2)c1NC(=O)c1ccccc1F,24%,-8,-4,1.8%,3%,-3.9,22%
Cn1c(SCC(=O)NCc2ccc(F)cc2)ncc(C(=O)Nc2ccccc2)c1=O,-21%[15.4 µM],-33,8,?,-9%,.,.
CCOC(=O)Cc1csc(NC(=S)NC(=O)C(C)(C)C)n1,7%[15.4 µM],-12,0,0.9%,10%,6.1,-23%
O=C(CCN1C(=O)c2ccccc2C1=O)Nc1ccccc1C(F)(F)F,-2%,-6,3,2.2%,-4%,2.5,-27%
O=C(COC(=O)c1ccco1)c1ccccc1,-20%,-5,2,.,6%,1.4,8%
CC(=O)c1ccc2c(c1)N(CCCN1CCC(CCO)CC1)c1ccccc1S2,.,-39,-2,1.0%,-30%,.,10%
CC(C)=C(NC(=O)c1ccccc1)C(=O)N/N=C/c1ccc(O)cc1,23%[15.4 µM],-4,5,-2.9%,-3%,7.1,11%
CCOC(=O)C(=O)/C(C#N)=C/Nc1ccc(Cl)cc1,1%,1,8,-1.0%,4%,1.8,1%
COc1cc(NC(=S)Nc2ccccn2)cc(OC)c1,-28%,-9,13,-2.1%,-14%,7.8,-15%
NS(=O)(=O)c1cc2c(cc1Cl)NC(CC1CCCC1)NS2(=O)=O (stereo unspecified),-38%[inhibitor],-1,-1,-0.9%,-1%,7.7,21%
O=C(Cn1nc(Cl)nc1Cl)c1ccccc1,-21%,-2,10,.,3%,-5.6,14%
COCCNc1nc(-c2cc3ccccc3o2)cs1,-2%[15.4 µM],-10,-21,?,-5%,10,-9%
CCCCC(=O)NCCc1cc2c(OC)ccc(OC)c2[nH]c1=O,5%,-9,2,-5.1%,0%,0.1,8%
NS(=O)(=O)c1ccc(CCNC(=O)c2ccc(NS(=O)(=O)c3ccc4[nH]c(=O)[nH]c4c3)cc2)cc1,-14%,18,-2,-6.1%,8%,.,.
Cc1ccc(C(=O)NCCOc2ccc(Cl)cc2)cc1,-56%[inhibitor],-21,12,.,1%,-5.0,-3%
C[C@H](CO)N1C[C@H](C)[C@@H](CN(C)C(=O)NC2CCCCC2)Oc2ccc(NC(=O)Cn3cnnn3)cc2C1=O,12%,-12,.,-2.3%,6%,.,.
Cc1ccc(Nc2nc(N)nc(CSC(=S)N3CCN(c4ccccc4)CC3)n2)cc1,-3%,-4,1,-3.0%,7%,3.6,26%
COc1ccc2cc(S(=O)(=O)N3CCCC3)ccc2c1,?,-5,3,.,-3%,-5.2,14%
CC(C)=CCc1c(O)ccc(C(=O)Cc2ccccc2)c1O,-16%,-4,0,-1.3%,-2%,3.4,14%
CC(NS(=O)(=O)c1cc2c3c(c1)CCC(=O)N3CCC2)c1ccccc1 (stereo unspecified),-17%,11,-8,-1.4%,19%,.,.
Cn1cc(S(=O)(=O)NC(c2ccccc2)c2ccccc2)c(=O)n(C)c1=O,-4%[15.4 µM],2,3,.,-1%,-7.1,22%
CCOc1ccc(S(=O)(=O)N2CCN(c3ccc(C)cc3C)CC2)cc1,9%,-6,-8,-0.2%,-4%,4.6,-2%
CN(C)c1ccc(N=Nc2ccccc2C(=O)OCC(=O)N2CCCCCC2)cc1,7%,-16,-3,-0.2%,-18%,5.0,-10%
COc1ccc(NC(=O)c2cc(-c3ccc(C)cc3O)n[nH]2)c(OC)c1,-1%[15.4 µM],8,?,-2.8%,-32%,1.3,5%
Fc1ccccc1Cn1c2[n+](c3ccc(C(F)(F)F)cc31)CCCCC2,?,-14,0,-4.0%,16%,-0.3,?
O=c1c(-c2ccccc2)c(O)cc(-c2ccncc2)n1-c1ccc(Cl)cc1,-4%[15.4 µM],-3,13,.,.,1.3,14%
Oc1ccccc1C1=Nc2ncnn2C(c2ccc(F)cc2)C1 (stereo unspecified),-25%,-15,29,-2.1%,-9%,-0.1,-18%
Cc1ccc(C(=O)NN2CCOCC2)cc1[N+](=O)[O-],-18%,-6,?,1.0%,0%,.,26%
COCCN(Cc1cc2c(C)cc(C)cc2nc1Cl)C(=O)c1ccccc1F,-61%[inhibitor],0,0,4.5%,-4%,0.2,21%
CN1CCN(NC(=O)c2ccc(F)cc2)CC1,-1%,-9,-6,-3.8%,6%,0.9,10%
CN[C@H](C)CCC=C(C)C,.,.,.,-3.9%,.,0.2,?
C[C@@H]1CN([C@@H](C)CO)C(=O)CCCn2nncc2CO[C@@H]1CN(C)C(=O)NC1CCCCC1,-42%,9,.,-0.1%,.,.,.
# Following part
SMILES,gsp ag,D2 potentiator,TRPV1 PAM,ClpP mod,gsp antag,Menin-MLL FL inh,Sfp PPTase inh
O=C(Nc1ccon1)c1ccc(Br)s1,-6%,-18,1,-1.6%,-5%,-0.9,2%
Cc1ccc2c(c1)c1c3n2CCN(CCC(=O)O)C3CCC1 (stereo unspecified),-2%[15.4 µM],-5,-15,1.0%,-17%,2.9,11%
Cn1c(SCc2cccc(Br)c2)nc2c1c(=O)[nH]c(=O)n2C,-35%[inhibitor],2,5,1.0%,3%,-0.5,8%
Cc1ccc(S(=O)(=O)NCC2CCC(C(=O)NCc3ccccn3)CC2)cc1 (stereo unspecified),7%[15.4 µM],3,-8,0.4%,7%,-4.4,11%
CC(=O)N[C@@H](CC(=O)O)C(=O)O,.,-3,-4,0.5%,-6%,-1.6[24.8 µM],14%
CSc1ccc(CN(C)CC(=O)Nc2ccccc2C(=O)NC2CC2)cc1,9%,-1,-5,0.9%,12%,.,.
CN(CCc1ccccn1)C(=O)CCC1CCCN(C(=O)CN2CCCCCC2)C1 (stereo unspecified),?,0,1,-2.3%,4%,-5.4,13%
